# Screens from PubChem BioAssay.
# miR-21 FLuc: miR-21 reporter, rising signal; HeLa miR-21 FLuc reporter, luciferase, 48 h; 340,000 tested, under 10 active; Potency, µM (titrated, usually from 38.3 µM), inactives show top-dose reporter change, positive = more light; AID 2288; active = well fitted rising curve with a large enough effect; inconclusive = small, poorly fitted or top-dose-only effect; inactive = no such curve, though single readings can be large or run the other way;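 note: % of control where 0% means no effect; miR-21 action dims this reporter so a rising signal means less miR-21 action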
#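 HeLa cells stably expressing CMV-driven firefly luciferase with a downstream miR-21 binding sequence, endogenously expressing miR-21, were treated with titrations (up to about 40uM final) for 48 hours at 37 degree Celsius. Luciferase luminescence was read after lysis.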
# Rango-impB inh: prevents formation of the Rango-importin beta complex | 340,000 tested, 0.031% active | Rango CFP/YFP FRET sensor + importin beta, 45 min | AID 540263 | Q14974 | Potency, µM (titrated, usually from 92.2 µM), without a hit: top-dose inhibition of complex formation; active = rising FRET ratio curve, often small or poorly fitted; inconclusive = mostly compound fluorescence or quenching in the first reads; inactive = flat curves in all reads;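 note: potency is the fitted concentration of half-maximal effect; 0% = DMSO wells and 100% = buffer wells lacking importin beta; nearly all actives have a fitted effect of over 15% in size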
# Target sequence (Q14974 whole entry, looked up): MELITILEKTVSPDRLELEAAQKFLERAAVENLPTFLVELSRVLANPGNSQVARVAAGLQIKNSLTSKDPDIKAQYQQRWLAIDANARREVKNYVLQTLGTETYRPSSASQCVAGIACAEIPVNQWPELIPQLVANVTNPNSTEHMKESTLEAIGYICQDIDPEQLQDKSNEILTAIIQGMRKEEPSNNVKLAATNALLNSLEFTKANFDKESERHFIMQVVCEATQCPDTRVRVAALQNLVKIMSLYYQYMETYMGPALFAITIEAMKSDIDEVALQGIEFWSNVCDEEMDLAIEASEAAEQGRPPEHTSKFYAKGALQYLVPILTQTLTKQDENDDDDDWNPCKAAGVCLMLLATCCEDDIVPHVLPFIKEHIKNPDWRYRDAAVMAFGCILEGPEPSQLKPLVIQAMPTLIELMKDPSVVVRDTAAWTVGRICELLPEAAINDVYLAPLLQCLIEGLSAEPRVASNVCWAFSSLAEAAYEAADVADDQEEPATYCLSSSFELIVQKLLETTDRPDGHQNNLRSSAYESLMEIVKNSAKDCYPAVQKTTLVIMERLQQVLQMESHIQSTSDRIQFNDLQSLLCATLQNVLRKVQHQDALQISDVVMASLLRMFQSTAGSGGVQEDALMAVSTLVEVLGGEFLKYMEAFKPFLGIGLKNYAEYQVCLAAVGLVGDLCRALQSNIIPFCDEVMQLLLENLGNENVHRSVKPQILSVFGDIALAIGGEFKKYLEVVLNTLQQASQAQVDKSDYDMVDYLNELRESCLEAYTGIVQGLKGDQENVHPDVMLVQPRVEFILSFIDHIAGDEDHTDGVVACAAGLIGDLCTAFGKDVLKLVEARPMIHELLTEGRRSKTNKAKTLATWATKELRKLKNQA
#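 FRET biosensor Rango (snurportin 1 IBB between N-terminal EYFP and C-terminal Cerulean), 50 nM in PBS/1 mM DTT/0.02% Tween-20/0.1% BSA, preincubated 5 min RT with compound; 0.125 microM importin beta added, 45 min RT, CFP/YFP FRET ratio read.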
# Rango release inh: prevents RanGTP from dissociating the Rango-importin beta complex; Biochemical FRET Rango-importin beta, RanGTP-induced dissociation; O95149+P62826; Potency, µM (top dose mostly 46.1 µM), without a hit: at the highest dose activity change, negative = inhibition; 340,000 tested, 0.071% active; AID 540253; active means falling FRET ratio curve, often poorly fitted, with flat reads before Ran was added; inconclusive means other falling curves, or compound fluorescence or quenching; inactive means flat or rising ratio curve;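 note: potency is the fitted concentration of half-maximal effect; % of control where 0% means no effect; nearly all actives have a fitted effect of over 45% in size; -100% = wells without RanGTP and RCC1; the record marks most hits as doubtful in a second field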
#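 Rango (0.1 uM)–importin beta (0.25 uM) complex; RanGTP-RCC1 trigger; 45 min RT; CFP/YFP FRET read.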
# GLA inh pH 4.5: blocks human alpha-galactosidase A at pH 4.5. AID 1467. activity change, negative = inhibition, % at 105 µM. 230,000 tested, under 10 active. purified enzyme, 4-MU-alpha-Gal fluorescence, pH 4.5; inconclusive = small, poorly fitted or top-dose-only inhibition, or a rising curve; inactive = flat fitted curve, though single readings scatter; no compound was filed as active;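 note: 0% = full activity with enzyme and -100% = basal without enzyme; dose as in the result columns while the protocol names 77 µM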
# * = called active by the depositor; ? = inconclusive; / = no result given; [ ] = dose if it differs, or a comment. Not all compounds are listed (hit frequency here may not be typical).
no.	SMILES	miR-21 FLuc	Rango-impB inh	Rango release inh	GLA inh pH 4.5
1	COCCn1c(SCC(=O)N2CCCC2)nnc1-c1ccoc1C	-6.9%	-0.1%	7.7%	7.1
2	CCN(CC)S(=O)(=O)c1cccc(-c2nnc(SCC(=O)N3CCC(C(=O)O)CC3)n2N)c1	-1.1%	-1.5%	39.0%	-0.6
3	Cc1ccc(S(=O)(=O)CC(C)(O)CS(=O)(=O)c2ccc(C)cc2)cc1	-5.5%	1.4%	?	?
4	O=C(Cn1c2c(c(-c3ccccc3)cc1=O)CCCC2)N1CCCCCC1	-12.3%	-3.9%	-4.6%	4.5
5	COc1ccc(OC)c(CCNC(=O)CCc2cn(C)c3ccccc23)c1	-9.2%	4.9%	-22.1%	/
6	COc1ccc(C2Nc3ccccc3C(=O)N2NS(=O)(=O)c2ccccc2)cc1OC (stereo not drawn)	-11.2%	2.9%	34.6%	-3.1[21.1 µM]
7	COc1ccc(C(=O)N2CCCC(Nc3ccc(C)c(C)c3)C2)cc1F (stereo not drawn)	-3.1%	1.5%	9.1%	/
8	CC(=O)N1c2ccc(S(=O)(=O)N3CCCCC3)cc2CC1C(=O)NCc1ccc(N(C)C)cc1 (stereo not drawn)	-4.8%	-3.1%	?	/
9	CCOC(=O)c1c(C)n(OC)c2ccc3c(no[n+]3[O-])c12	0.5%	-3.8%	-6.7%	2.9
10	COC(=O)N/N=C/c1c(C)c(C(=O)c2ccc(F)cc2)n2ccccc12	-0.8%	?	?	-9.8
11	C#CCOCCOCCOCCNc1nc(N2CCOCC2)nc(N2CCN(C(=O)[C@H](CCCCN)n3cc([C@@H](N)C(C)CC)nn3)CC2)n1 (stereo partly drawn)	-4.5%	0.3%	4.2%	3.8
12	O=C1NC(=S)N/C1=C/c1cccnc1	25.4%	-4.8%	-15.4%	6.9
13	CCCCN1/C(=C/c2cccc[n+]2C)Sc2cc(NC(C)=O)ccc21	0.1%	-0.5%	-7.7%	/
14	COc1ccc(C(=O)/C=C2/c3ccccc3CC(C)(C)N2C)cc1	7.9%	-2.1%	0.0%	1.5
15	COc1cc(C)ccc1OCCCOc1c(Cl)cccc1Cl	-21.8%	0.1%	6.1%	-1.9
16	CCc1nnc(NC(=O)CSc2ncc(-c3ccccc3)n2CC)s1	-5.3%	3.7%	-11.0%	-3.5
17	Cc1ccc(N2C(=O)C(CN(C)C)C2c2ccccc2)cc1 (stereo not drawn)	-2.8%	-0.6%	-5.8%	-1.2
18	CS(=O)(=O)N(CC(=O)N1CCc2ccccc2C1)Cc1ccc(F)cc1	-1.2%	-3.5%	-1.9%	/
19	CNC(=O)CC1C(=O)N(c2ccc(OC)cc2)C(=S)N1NC(=O)c1cccc(F)c1 (stereo not drawn)	-15.1%	0.6%	5.2%	0.4
20	Cc1ccc(-n2nc(C)c3c(C)cc(=O)[nH]c32)cc1	-20.6%	0.5%	0.1%	3.4
21	COc1ccc(S(=O)(=O)N2CCCC2CNC(=O)C(=O)NCc2ccccc2Cl)cc1 (stereo not drawn)	/	1.5%	-12.6%	/
22	Clc1ccc(-c2nnc(N3CCCC3)nn2)cc1	-40.5%	-3.3%	15.7%	-1.8
23	CCOc1ccccc1C(=O)N/N=C/c1coc2ccc(C)cc2c1=O	6.5%	-4.7%	11.0%	/
24	Cc1c(OCC(=O)C(C)(C)C)ccc2c(-c3ccccc3)cc(=O)oc12	4.6%	2.3%	5.7%	/
25	COc1cc(C(=O)NCCSc2ccc(Cl)cc2)cc(OC)c1OC	7.4%	-0.3%	8.0%	/
26	O=C(O)CCCCCCCCCCCc1ccccc1	-3.2%	-1.1%	12.7%	-0.4
27	COC(=O)CCCC[C@@H]1SC[C@@H](NC(=O)OC)[C@@H]1NC(=O)OC	-2.3%	3.8%	-6.0%	4.5
28	COC(=O)c1c(C(=O)OC)c2oc3ccccc3n2c1Cl	-11.9%	1.9%	?	5.5
29	Cc1ccc(-c2cc3nc(-c4ccc(Br)cc4)cc(N)n3n2)cc1	-15.7%	-4.8%	-29.8%	-0.5
30	COc1ccc(N(C(=O)CNC(=O)c2ccco2)C(C(=O)NCC2CCCO2)c2ccccc2)cc1 (stereo not drawn)	2.2%	-2.0%	1.1%	/
31	COc1ccc(/C=N\NC(=O)c2ccc(=O)[nH]n2)cc1O	-0.1%	0.2%	28.5%	-13.1
32	C=CCC(Nc1ccccc1)c1cccc(OC)c1OC (stereo not drawn)	-10.3%	2.8%	15.4%	-6.5
33	O=C(NNC(=O)c1nn(-c2ccc(F)cc2)ccc1=O)Nc1cccc(Cl)c1	-0.8%	-0.3%	-10.1%	-2.1
34	CCCCCCOC(=O)/C=C/c1c(C)[nH]c(=O)[nH]c1=O	-2.7%	-1.1%	-10.9%	-22.9
35	Cc1ccc(NS(=O)(=O)c2ccc(C(=O)NCc3ccncc3)cc2)cc1	/	1.7%	6.4%	/
36	Cc1nnc(Sc2cc(C(=O)NCCCOC(C)C)c3ccccc3n2)s1	4.5%	0.0%	0.5%	-0.2
37	Cc1[nH][nH]c(=O)c1C(c1ccc([N+](=O)[O-])cc1)c1c(C)[nH][nH]c1=O	6.4%	3.2%	-13.1%	5.2
38	COCCn1c(=NC(=O)C2COc3ccccc3O2)sc2cc(S(N)(=O)=O)ccc21 (stereo not drawn)	-4.3%	1.1%	-1.0%	8.1
39	Cn1c(C(O)c2ccc3c(c2)OCO3)nc2ccccc21 (stereo not drawn)	-7.7%	-2.2%	-8.6%	-1.4
40	Cc1ccc(Cl)cc1N(C(=O)c1csnn1)C(C(=O)NC1CCCC1)c1ccco1 (stereo not drawn)	-1.8%	-1.5%	-4.6%	/
41	CCOC(=O)N1CCN(S(=O)(=O)c2cccc3nsnc23)CC1	-3.9%	-0.1%	15.0%	1.6
42	CCC(=O)N1CCN(c2ccc(NC(=O)c3ccc(N4CCCC4)c([N+](=O)[O-])c3)cc2)CC1	-7.4%	-1.0%	1.7%	5.8
43	Cc1cccc(-c2c3c(nc4c2c(=O)n(C)c(=O)n4C)-c2ccccc2C3O)c1 (stereo not drawn)	/	6.3%	?	/
44	Cc1ccc(S(=O)(=O)NC(=O)Nc2cccc(C)n2)cc1	0.0%	-0.2%	3.1%	3.8
45	CCOC(=O)C1CCN(C=Nc2cc(C)on2)CC1	-1.0%	-4.7%	-6.0%	2.4
46	O=C(CSc1nnc(-c2cccs2)n1-c1ccccc1)Nc1ccccc1	1.6%	?	-1.5%	4.8
47	Cc1cccc(C(=O)N2CCCN(C(=O)c3cccc(C)c3)CC2)c1	-1.5%	-0.1%	1.1%	11.0
48	S=C(Nc1cccnc1)N1CCc2ccccc21	-4.1%	-0.5%	9.0%	/
49	Cc1cccc(OCc2nnc(SCC(=O)N3CCCC3)n2C)c1	-7.1%	-4.6%	0.4%	-2.3
50	O=C(Oc1c(-c2ccccc2)c(=O)n2c3c(cccc13)CC2)c1ccccc1	-0.4%	0.7%	1.1%	6.2

# (continued)
no.	SMILES	miR-21 FLuc	Rango-impB inh	Rango release inh	GLA inh pH 4.5
51	CN1CCN(c2ccc(NC(=O)c3cccs3)cc2)CC1	-4.7%	1.8%	11.4%	5.6
52	Cc1ccc(SCCC(=O)NC(C)C)cc1	-13.3%	-0.6%	0.9%	17.7
53	CCCc1cc(=O)oc2cc(O[C@@H]3O[C@H](CO)[C@@H](O)[C@H](O)[C@H]3O)ccc12	-2.2%	-0.8%	24.2%	/
54	COc1ccccc1Nc1nc(NCc2ccco2)nc(N)c1[N+](=O)[O-]	-3.2%	3.9%	7.2%	-5.0
55	O=C(CSc1nc2[nH]ncc2c(=O)[nH]1)Nc1ccccc1F	/	-0.5%	9.4%	/
56	CCN1C(=NCc2ccc(OC)cc2)N[C@@H](c2ccccc2)[C@H](C(=O)OC)[C@H]1C	3.4%	1.5%	-17.9%	/
57	NC(=S)N/N=C/c1ccccc1	-2.6%	-0.3%	8.8%	4.2
58	Cc1cccc(N2CCN(C(=O)Cn3cccc3)CC2)c1C	-3.9%	-3.3%	1.3%	-1.6
59	CC1Cc2cc(/C=C3/SC(N4CCC(C(N)=O)CC4)=NC3=O)ccc2O1 (stereo not drawn)	3.0%	0.9%	-8.1%	-2.3
60	COc1cc(NS(=O)(=O)c2ccc(NC(=S)NC(=O)c3sc4cc(F)ccc4c3Cl)cc2)nc(OC)n1	-16.1%	-5.1%	?	-0.7

# Some entries already given, limited to GLA inh pH 4.5, Rango-impB inh and miR-21 FLuc:
no.	molecule	GLA inh pH 4.5	Rango-impB inh	miR-21 FLuc
49	Cc1cccc(OCc2nnc(SCC(=O)N3CCCC3)n2C)c1	-2.3	-4.6%	-7.1%
50	O=C(Oc1c(-c2ccccc2)c(=O)n2c3c(cccc13)CC2)c1ccccc1	6.2	0.7%	-0.4%
51	CN1CCN(c2ccc(NC(=O)c3cccs3)cc2)CC1	5.6	1.8%	-4.7%
52	Cc1ccc(SCCC(=O)NC(C)C)cc1	17.7	-0.6%	-13.3%

# Next section:
no.	SMILES	miR-21 FLuc	Rango-impB inh	Rango release inh	GLA inh pH 4.5
61	COCCOC(=O)C1=C(C)NC(=O)NC1c1cn(-c2ccccc2)nc1-c1cccs1 (stereo not drawn)	-10.3%	-2.0%	-4.3%	3.1
62	CCCCC#Cc1cncc(C(=O)NN)c1	-1.9%	3.9%	8.0%	5.4
63	CCOc1ccc(NC(=O)/C(C#N)=C\c2ccc(N3CCCC3)c(C)c2)cc1	/	?	?	/
64	CN(CCCC(=O)Nc1ccccc1F)S(=O)(=O)c1ccc(F)cc1	-3.5%	2.7%	3.9%	/
65	O=C(O)CC1COc2ccccc2N1C(=O)c1ccccc1Cl (stereo not drawn)	9.6%	1.7%	0.9%	2.2
66	Cc1[nH]n2c(=O)c3c(nc2c1-c1ccccc1)CCCC3	-2.0%	1.7%	13.1%	-3.5
67	COc1ccc(-c2nnc(-c3ccc(Br)o3)o2)cc1OC	-65.8%	0.1%	15.1%	0.7
68	CCOc1ccccc1OCCn1nc2ccccc2n1	-19.8%	-5.6%	-10.0%	/
69	Cc1cc2c3c(c1)C1(C(=O)N3C(C)(C)CC2C)C(C#N)=C(N)OC2=C1C(=O)CC(C)(C)C2 (stereo not drawn)	1.8%	-3.2%	-5.1%	-0.2
70	COc1cc(C)ccc1N(CCCN1C(=O)c2cccc3cccc(c23)C1=O)C(=O)c1cccs1	-10.4%	-0.1%	0.8%	4.0
71	CCOCc1nnc(NC(=O)C2CC(=O)N(C3CCCC3)C2)s1 (stereo not drawn)	-3.5%	-0.1%	-10.0%	/
72	O=S(=O)(O)c1nc2ccccc2[nH]1	-1.9%	-4.0%	1.5%	-8.9
73	CCc1ccc(C2(C)SC(NC(C)=O)=NN2C(C)=O)cc1 (stereo not drawn)	-1.2%	-0.7%	12.3%	3.9
74	CCC(Oc1ccccc1)C(=O)NC1C(=O)N2C1SC(C)(C)C2C(=O)O (stereo not drawn)	-1.2%	-1.5%	3.1%	7.5
75	O=C(O)C1CCCCC1C(=O)NCc1ccccn1 (stereo not drawn)	-0.2%	-4.8%	-0.9%	5.1
76	Clc1ccc(-c2nnc(SCc3nc4ccccc4[nH]3)o2)c(Cl)c1	-24.2%	-0.6%	-6.6%	-17.5
77	CCCCNC(=O)N(c1c(N)n(Cc2ccccc2)c(=O)[nH]c1=O)C1CCCC1	-2.6%	8.3%	1.4%	2.5
78	O=S(=O)(NCC(c1cccnc1)N1CCN(c2ccccc2)CC1)c1cccs1 (stereo not drawn)	-2.4%	2.2%	-4.5%	-5.0
79	CC1CC(OCC(O)CN2CCCCC2C)CC(C)(C)C1 (stereo not drawn)	-2.8%	2.0%	6.0%	/
80	COc1nc(N)nc2nc[nH]c12	-5.9%	-1.8%	13.2%	/
81	N#Cc1c[nH]n2c(=O)cc(Cc3ccccc3)nc12	0.6%	-0.5%	1.9%	7.9
82	CCCCn1cc(S(=O)(=O)c2ccccc2)c(=O)c2cc(C)ccc21	0.9%	0.6%	1.2%	/
83	CCC1CCCCN1C(=O)CSc1nc2c(c(=O)n1C)SC(C)C2 (stereo not drawn)	-1.1%	0.0%	6.8%	/
84	COc1ccc(Cl)cc1C(=O)OCC(=O)N(C)CC(=O)Nc1ccc(F)cc1	/	?	-0.5%	/
